Compound activity deposited in PubChem by several laboratories.
UCH37 DUB inh – human UCH37 deubiquitinating enzyme inhibition; purified proteasome/UCH37, Ub-AMC cleavage fluorescence; Q9Y5K5; 330,000 compounds, 0.33% hits; inhibition, % (test concentration not listed);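 active = mean of two replicates above 20%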;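 also: 0% = compound-free wells with enzyme and 100% = wells lacking proteasome; stock transfer was 100 nL into about 20 µL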
Target sequence (Q9Y5K5 whole entry, looked up): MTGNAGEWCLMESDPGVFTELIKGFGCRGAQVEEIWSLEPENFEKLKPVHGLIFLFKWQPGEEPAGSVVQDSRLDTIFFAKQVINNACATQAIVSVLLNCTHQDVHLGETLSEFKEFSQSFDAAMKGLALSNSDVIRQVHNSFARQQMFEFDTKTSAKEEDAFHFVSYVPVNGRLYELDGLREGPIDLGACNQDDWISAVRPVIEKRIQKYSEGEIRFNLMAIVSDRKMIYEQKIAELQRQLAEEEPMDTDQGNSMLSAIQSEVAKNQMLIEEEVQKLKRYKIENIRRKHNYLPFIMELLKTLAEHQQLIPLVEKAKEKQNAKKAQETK
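Test system – human UCH37 enzyme supplied as purified proteasome complex · Incubation – 30 min preincubation with enzyme, 25 min cleavage at room temperature · Detection – AMC fluorescence from Ub-AMC cleavage, excitation 355 nm, emission 460 nm · Benchmarks – no-proteasome wells (full inhibition) and compound-free wells (no inhibition)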
A1 inh – inhibitors of the anti-apoptotic protein A1, read as caspase activation. caspase activation, % (test concentration not listed). AID 2462. MEF A1-2A-BIM cells, Caspase-Glo 3/7 luminescence, 3 h; percent of clofoctol response, vehicle zero. 330,000 compounds, 0.066% hits;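 active = over half of replicate activation scores above 10%, or exactly half above 10 with the replicate mean above 10; inconclusive = replicate mean below 10 yet half the replicates above 10; inactive = over half of replicates below 10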;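 also: wells of about 30 µL received 50 nL stock; many hits fall short of the cut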
T cruzi repl – blocks replication of Trypanosoma cruzi; T. cruzi beta-gal in NIH3T3, luminescence, 90 h; 300,000 compounds, 1.4% hits; AID 1885; inhibition, % (test concentration not listed);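 active = mean inhibition across valid replicates above about 55%, limit read from the data; inconclusive = mean below that limit but half or more replicates reach it; inactive = mean below it, under half of replicates reach it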;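 also: signal also drops with host cell toxicity which is not excluded here; 0% = plate median of DMSO wells and 100% = zero luminescence signal; higher percent means less beta-gal luminescence so fewer parasites; stock transfer was 50 nL into about 50 µL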
LANA-H2A inh – blocks KSHV LANA binding to histone H2A/H2B; cell-free LANA-H2A/H2B peptide, fluorescence polarization; inhibition, % (concentration not given with the values); 320,000 compounds, 0.6% hits; in the data active = inhibition mostly above about 10%, no sharp cut-off; inactive = mostly below about 6.7%;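 also: stock transfer was 7.5 nL into about 10 µL; 0% = median of vehicle wells and 100% = median of positive control wells; one replicate is shown; the record names a cut of 25% in any replicate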
Beta2AR agonist – human beta-2 adrenergic receptor agonism by FAP | P07550 | Am2.2-beta2AR cells, FAP receptor internalization, flow cytometry; reference of the scale not given here | response, % (no concentration beside the values) | 340,000 compounds, 0.43% hits;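 active = response above a set limit, near 3 SD of response in nonfluorescent compounds, cut at about 42% in these data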;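 also: stock transfer was 100 nL into about 11 µL; a reference agonist was the positive control; negative values mostly stem from fluorescent compounds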
Target sequence (P07550 whole entry, looked up): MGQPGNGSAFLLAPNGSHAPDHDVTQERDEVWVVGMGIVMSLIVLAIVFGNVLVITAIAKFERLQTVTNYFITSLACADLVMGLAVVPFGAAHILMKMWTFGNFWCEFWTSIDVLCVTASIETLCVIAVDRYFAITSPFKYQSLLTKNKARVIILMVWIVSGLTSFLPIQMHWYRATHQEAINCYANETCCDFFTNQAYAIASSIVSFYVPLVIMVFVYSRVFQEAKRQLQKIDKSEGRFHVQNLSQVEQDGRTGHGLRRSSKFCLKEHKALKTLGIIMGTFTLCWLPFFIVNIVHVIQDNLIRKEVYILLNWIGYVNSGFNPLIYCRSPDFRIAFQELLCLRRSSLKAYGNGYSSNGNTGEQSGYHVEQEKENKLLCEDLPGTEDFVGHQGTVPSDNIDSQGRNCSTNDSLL
Calb FLC – affects C. albicans growth with fluconazole. C. albicans CaCi-2 (fluconazole-resistant clinical isolate) + fluconazole, Alamar Blue growth, 48 h. 300,000 compounds, 0.57% hits. growth inhibition, % (no concentration beside the values);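 active = most replicates above 75%; inconclusive = exactly half above 75%; inactive = most below 75%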;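 also: all wells also contain fluconazole at 8 µg/ml as a sub-toxic cotreatment; 0% = median of DMSO wells and 100% = median of geldanamycin control wells; wells of about 8 µL received 7.5 nL stock; the first replicate is given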
RanGTP-Impb inh – inhibitors of RanGTP-importin-beta interaction, primary screen, biochemical, FRET, CFP-Ran, YFP-importin-beta, homogeneous; cell-free CFP-Ran/YFP-importin-beta FRET ratio; inhibition, % (test concentration not listed); 300,000 compounds, 1.1% hits;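 active = most replicates above 15%; inconclusive = exactly half above 15%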;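 also: 0% = DMSO wells and 100% = Ran loaded with GDP instead of GTP; wells of about 40 µL received 100 nL stock; the first replicate is given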
Beta cell apopt – beta cell apoptosis inhibition; INS-1E cytokine-induced death, ATP luminescence, 48 h; percent of positive-control rescue, neutral wells zero; protection from apoptosis, % (concentration not given with the values); 300,000 compounds, 0.8% hits; AID 435005;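 active = all replicates at 75% or more, or half of them and the mean; inconclusive = half reach 75% but not the mean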;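 also: 0% = cytokine-treated negative control wells and 100% = positive control rescue; higher means more ATP so stronger rescue from cytokine killing; wells of about 40 µL received 100 nL stock; the first replicate is given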
* hit, by the source's call; ? = inconclusive; . = no result given.

The line under a structure holds: UCH37 DUB inh	A1 inh	T cruzi repl	LANA-H2A inh	Beta2AR agonist	Calb FLC	RanGTP-Impb inh	Beta cell apopt
1) O=C(Cc1cccc2ccccc12)Nc1nnc(-c2cccc([N+](=O)[O-])c2)s1
    2.4	0.4	-8	-5.5	6	2	-2.9	-5
2) CC(C)NC(=O)N(Cc1ccc(Cl)cc1)Cc1cccs1
    2.9	0.5	6	6.7	8	-1	0.6	3
3) COc1ccc(CCNC(=O)Cn2c(=O)n(CC3CCCO3)c(=O)c3ccccc32)cc1OC (configuration not stated)
    2.4	0.3	14	-3.2	-1	1	-2.7	-2
4) CC(=O)N1CCC(=NNc2ncc(C(F)(F)F)cc2Cl)CC1
    0.3	0.5	-7	3.3	-1	12	0.4	3
5) O=C(NCc1ccon1)C1CCC(=O)N(Cc2cccc(C(F)(F)F)c2)C1 (configuration not stated)
    2.8	-0.2	1	7.8	-5	-3	3.3	-1
6) CCOC(=O)N1CCC(NC(=O)c2ccc(CS(=O)c3cccc(Cl)c3)o2)CC1 (configuration not stated)
    -1.6	0.3	-2	8.3	8	29	1.9	10
7) COc1ccc(CNC(=O)c2cccnc2)cc1
    3.3	0.7	-5	-5.8	2	-15	1.4	68
8) O=C(NCc1ccc(Cl)cc1)c1cnn2ccccc12
    -5.5	.	-7	.	-10	-8	?	.
9) O=C(Oc1ccc(NC2=NS(=O)(=O)c3ccccc32)cc1)c1cccnc1
    2.5	-0.4	-8	6.8	-5	2	2.2	.
10) COc1cc(CO)cc(Br)c1OCC(=O)N1CCCCC1
    2.6	0.1	-5	-1.6	3	22	2.6	-3
11) COc1cccc(NC(=O)c2nc3ncccn3n2)c1
    -1.4	-0.3	-17	7.2	-2	-3	0.0	1
12) CC(C)C[C@H](NC(=O)OC(C)(C)C)c1nnc(SCc2ccccc2)o1
    1.8	-1.3	20	3.2	-1	-17	1.5	-1
13) CCOC(=O)C1=C(COC(=O)c2cc(S(=O)(=O)N(C)C)ccc2C)NC(=O)NC1C (configuration not stated)
    4.1	-1.7	.	4.0	0	.	.	1
14) CC(=O)n1cc(/C=N/NC(=O)c2sc(C)nc2C)c2ccccc21
    .	-0.1	14	-1.5	3	?	2.0	-4
15) COc1ccc(S(=O)(=O)Nc2cc3c4c(c2)CCN4C(=O)CC3)cc1
    0.6	0.0	-5	-3.5	-3	1	-0.2	-2
16) O=C(c1ccc(COc2ccc(Cl)cc2Cl)o1)N1CCCC1
    1.8	0.0	20	-14	4	59	4.3	-1
17) CC1=C(C(=O)OCC2CCCO2)C(c2ccsc2)C2=C(CC(C)(C)CC2=O)N1 (configuration not stated)
    -102	1.0	-6	-6.4	-2	-27	?	2
18) COc1ccc([C@H]2CC(=O)C=C(c3ccc4ncccc4c3)C2)cc1
    1.3	0.0	.	2.7	-13	.	.	0
19) C/C(=N\NS(=O)(=O)c1ccc(C(C)(C)C)cc1)c1ccccc1
    .	-1.3	-4	0.4	-16	18	3.0	-3
20) CC(C)(C)NCc1cc(Cl)ccc1OCc1ccccc1F
    -1.6	0.6	11	-0.1	-2	-20	1.0	-10
21) COc1cccc(NC(=S)N2CCC(NC(=O)c3ccco3)CC2)c1
    10	-0.6	-10	-1.1	-4	17	?	5
22) COc1ccc(NC(=O)C(=O)Nc2cccc3cccnc23)cc1OC
    -13	-0.1	13	5.8	6	-1	-1.3	-6
23) O=C(CN1C(=O)C2CCCCC2C1=O)Nc1ccc(S(=O)(=O)Nc2ncccn2)cc1 (configuration not stated)
    0.1	0.6	2	7.3	1	?	-6.5	-5
24) CCOc1ccc(S(=O)(=O)N2CCC(C(=O)N3CCCCCC3)CC2)cc1C
    1.7	0.6	0	3.0	-30	-2	-3.7	-2
25) COc1cc2c(cc1NC(=O)c1cc(-c3cccnc3)nc3ccc(C)cc13)oc1ccccc12
    -4.1	0.2	47	-0.4	0	-10	0.4	-3
26) CC(C)(C)c1ccc(-c2nnc(N)s2)cc1
    0.7	-1.8	9	-3.9	7	46	-0.7	-1
27) COC(=O)c1cccc(C(=O)Nc2ccc(C)cc2)n1
    2.3	-6.8	-3	2.7	2	4	?	-1
28) CC1CCN(C(=O)CSc2nc(C(C)C)nc3c2c(=O)n(C)c(=O)n3C)CC1
    0.8	-1.2	9	3.9	13	-7	2.5	13
29) COc1ccccc1-c1cnnc(N/N=C/c2ccc(-c3cccc(Br)c3)o2)n1
    .	0.1	5	3.4	8	?	-3.6	15
30) O=C(CN(CC1CCCO1)C(=O)CNS(=O)(=O)c1ccc(Cl)cc1)NCc1ccc(F)cc1 (configuration not stated)
    3.8	0.6	11	0.8	-6	-1	-1.5	-8

Compounds from the list above that contain bromine (2):
The line under a structure holds: UCH37 DUB inh	A1 inh	T cruzi repl	LANA-H2A inh	Beta2AR agonist	Calb FLC	RanGTP-Impb inh	Beta cell apopt
10) COc1cc(CO)cc(Br)c1OCC(=O)N1CCCCC1
    2.6	0.1	-5	-1.6	3	22	2.6	-3
29) COc1ccccc1-c1cnnc(N/N=C/c2ccc(-c3cccc(Br)c3)o2)n1
    .	0.1	5	3.4	8	?	-3.6	15

Ordered by the number under RanGTP-Impb inh (high to low): 4 from the list above.
nr | Molecule | UCH37 DUB inh | LANA-H2A inh | Beta2AR agonist | RanGTP-Impb inh
9 | O=C(Oc1ccc(NC2=NS(=O)(=O)c3ccccc32)cc1)c1cccnc1 | 2.5 | 6.8 | -5 | 2.2
11 | COc1cccc(NC(=O)c2nc3ncccn3n2)c1 | -1.4 | 7.2 | -2 | 0.0
15 | COc1ccc(S(=O)(=O)Nc2cc3c4c(c2)CCN4C(=O)CC3)cc1 | 0.6 | -3.5 | -3 | -0.2
30 | O=C(CN(CC1CCCO1)C(=O)CNS(=O)(=O)c1ccc(Cl)cc1)NCc1ccc(F)cc1 (configuration not stated) | 3.8 | 0.8 | -6 | -1.5

Part of the list above in order of formula weight, smallest number first.
The line under a structure holds: UCH37 DUB inh	A1 inh	T cruzi repl	LANA-H2A inh	Beta2AR agonist	Calb FLC	RanGTP-Impb inh	Beta cell apopt
18) COc1ccc([C@H]2CC(=O)C=C(c3ccc4ncccc4c3)C2)cc1
    1.3	0.0	.	2.7	-13	.	.	0
21) COc1cccc(NC(=S)N2CCC(NC(=O)c3ccco3)CC2)c1
    10	-0.6	-10	-1.1	-4	17	?	5
28) CC1CCN(C(=O)CSc2nc(C(C)C)nc3c2c(=O)n(C)c(=O)n3C)CC1
    0.8	-1.2	9	3.9	13	-7	2.5	13

(more compounds)
The line under a structure holds: UCH37 DUB inh	A1 inh	T cruzi repl	LANA-H2A inh	Beta2AR agonist	Calb FLC	RanGTP-Impb inh	Beta cell apopt
31) CCN(CC(=O)Nc1ccccc1C(F)(F)F)C(=O)c1cc(-c2cccs2)nn1-c1ccccc1
    -1.0	-0.4	12	0.8	11	6	4.5	-3
32) COc1ccc(C2CCCN2C(=S)Nc2cccc(Cl)c2C)cc1OC (configuration not stated)
    5.2	-0.5	3	-2.6	4	-1	-3.4	0
33) CCC(=O)Nc1cc2c(cc1C(=O)c1ccccc1)OCCO2
    2.7	-1.4	-3	2.1	-7	-7	-0.5	-1
34) O=C1CN(C(=O)/C=C/c2ccc(Cl)cc2Cl)CCN1
    5.3	0.1	-17	4.2	-12	5	4.2	-7
35) CCOC(=O)C1=C(CN2CCc3ccccc32)NC(=O)NC1c1cccc([N+](=O)[O-])c1 (configuration not stated)
    3.6	0.1	0	-2.2	-3	39	-2.3	8
36) NC(=S)N/N=C/c1ccc(-c2ccc([N+](=O)[O-])cc2)o1
    .	0.3	16	0.1	9	-8	4.3	-8
37) CC(C)(C)c1ccc(C(=O)NCCN2CCCC2)cc1
    4.7	-0.2	22	-3.4	1	29	-0.8	-2
38) O=c1ccc2cc(S(=O)(=O)N3CCOCC3)ccc2o1
    0.6	0.3	18	2.6	-14	-16	6.3	.
39) COc1ccc(NS(=O)(=O)c2csc(C(=O)Nc3ccccc3)c2)cc1
    3.5	-1.7	-49	-2.8	-1	-17	?	-5
40) CCCc1nn(C)c2c1C(c1cccnc1)C(C#N)=C(N)O2 (configuration not stated)
    6.0	-0.4	-1	-1.6	-1	5	4.2	2
41) Cc1ccccc1NC(=O)N1CCCC(c2nc(-c3ccc(F)cc3)no2)C1 (configuration not stated)
    -0.5	3.3	17	-3.6	5	3	-2.9	-3
42) O=C(O)c1ccc(S(=O)(=O)N2CCC(c3nc(-c4ccccc4Cl)no3)CC2)cc1
    4.5	0.4	0	-4.2	6	-23	4.2	0
43) CC(=O)Nc1ccc(NC(=O)COc2ccc(Br)cc2C)cc1
    0.8	-0.3	-24	2.3	-41	-3	8.7	-3
44) COc1ccc(N(CC(=O)N2CCCCCC2)S(=O)(=O)c2ccccc2)cc1
    3.0	0.3	8	-0.1	-1	-8	1.5	2
45) COc1ccccc1NC(=O)Nc1nnc(-c2ccco2)s1
    -3.9	0.8	-4	5.1	.	-13	5.1	-2
46) CSc1ccc(CN2CCN(C(=O)c3ccncc3)CC2)cc1
    -0.5	-0.3	-4	-0.8	5	27	?	-3
47) COc1ccc(/C=N/NC(=O)c2ccc(NC(=O)c3ccccc3Br)cc2)cc1
    .	0.4	-24	-3.7	12	-3	-1.5	8
48) O=c1[nH]c(/C=C/c2cccc([N+](=O)[O-])c2)c([N+](=O)[O-])c(=O)[nH]1
    10	1.1	-6	2.2	5	1	?	.
49) CCn1c(C)c(P(=O)(N2CCOCC2)N2CCOCC2)c2ccccc21
    1.9	1.0	4	-3.1	-2	-28	0.7	6
50) Cc1cccc(N/C=C/C(=O)c2cccs2)c1C
    -0.3	-7.6	-15	1.7	5	-5	1.9	.
51) O=C(O)c1ccc(N=Nc2c(O)[nH]c3ccccc23)cc1
    .	-7.6	1	-3.9	17	-1	-3.1	17

2 compounds picked at random from the list so far:
The line under a structure holds: UCH37 DUB inh	A1 inh	T cruzi repl	LANA-H2A inh	Beta2AR agonist	Calb FLC	RanGTP-Impb inh	Beta cell apopt
50) Cc1cccc(N/C=C/C(=O)c2cccs2)c1C
    -0.3	-7.6	-15	1.7	5	-5	1.9	.
39) COc1ccc(NS(=O)(=O)c2csc(C(=O)Nc3ccccc3)c2)cc1
    3.5	-1.7	-49	-2.8	-1	-17	?	-5

Random draw from the library; 4.3% or so of the library scored in one or more.
